NS1 function inh: blocks influenza NS1 protein function. 270,000 compounds, 0.4% hits. S. cerevisiae slowed by influenza A NS1, growth recovery by OD600. Potency, µM (top dose mostly 46.1 µM), for inactives: at the highest dose activity, positive = more growth. AID 2326; active means well fitted rising curve with a large enough effect; inconclusive means small, poorly fitted or top-dose-only effect; inactive means no such curve, though single readings can be large or run the other way; note: nearly all actives have a fitted effect of over 50% in size
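Growth recovery, yeast-based: influenza A NS1 expressed in S. cerevisiae causes slow growth, and suppressors are detected by OD600. The parent strain without NS1 is used as positive control.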
Marburg entry inh: Marburg virus entry inhibition; 300,000 compounds, 1.8% hits; AID 540276; Marburg virus pseudotyped entry inhibition, cell reporter; control for the full effect not named in the record; about a third of the inactives were read at about 46 µM; Potency, µM (titrated, usually from 37.8 µM), without a hit: at the highest dose activity change, negative = inhibition, usual class: inhibitors; active = well fitted inhibition curve with a large enough effect; inconclusive = small, poorly fitted or top-dose-only effect, or effect the other way; inactive = flat fitted curve, though single readings scatter; tested in HEK293 cells; about a fifth of its hits are not listed in these tables; note: % is set by controls: 0 for no effect and ±100 for the full control effect; luciferase read-out
Cruzain noTriton: inhibitors of Trypanosoma cruzi cruzain without detergent; purified cruzain, Z-FR-AMC fluorescence, no detergent; Potency, µM, for inactives: max response, negative = inhibition, usual class: inhibitors; 200,000 compounds, 2.3% hits; AID 1476;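 note: plate controls were enzyme without inhibitor for no effect and buffer without enzyme for full effect; nearly all actives have a fitted effect of over 40% in size; top concentration of the series not given in the record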
Target sequence (P25779 123-467 limits assumed): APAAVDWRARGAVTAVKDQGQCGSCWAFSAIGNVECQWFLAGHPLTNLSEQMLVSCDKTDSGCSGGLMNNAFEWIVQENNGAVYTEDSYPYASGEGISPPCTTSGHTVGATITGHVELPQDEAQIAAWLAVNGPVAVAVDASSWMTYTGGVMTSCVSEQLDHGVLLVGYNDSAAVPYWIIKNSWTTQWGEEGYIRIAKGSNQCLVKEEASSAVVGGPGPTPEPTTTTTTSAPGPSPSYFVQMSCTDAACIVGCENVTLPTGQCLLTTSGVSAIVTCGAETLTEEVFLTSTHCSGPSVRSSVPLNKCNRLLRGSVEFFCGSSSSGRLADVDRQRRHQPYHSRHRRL
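Purified cruzain at 1.5 nM, pre-incubated 15 min with compound at room temperature in 100 mM sodium acetate pH 5.5, 5 mM DTT, 0.00005% Triton X-100. Reaction started with 2 uM Z-FR-AMC; AMC fluorescence increase over 60 s gives rate.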
Cruzain Triton: blocks cruzain activity in presence of Triton detergent. P25779. 200,000 compounds, 0.43% hits. purified cruzain, Z-FR-AMC fluorescence, 0.01% Triton. Potency, µM, for inactives: max response, negative = inhibition, hits mostly inhibitors;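 note: plate controls were neutral wells for no effect and buffer without enzyme for full effect; nearly all actives have a fitted effect of over 40% in size; top concentration of the series not given in the record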
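In this qHTS format, compounds are incubated with 1.5 nM cruzain for 15 min at room temperature before 2 uM Z-FR-AMC is added. Release of AMC is followed at 360/450 nm, and progress is taken as the 60 s fluorescence difference.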
RE007 growth inh: less growth of the S. pombe RE007 Vpr strain; S. pombe RE007 Vpr strain, BacTiter-Glo ATP luminescence, 24 h; control for the full effect not named in the record; Potency, µM (series often up to 92.2 µM), inactives show at the top dose activity change, negative = less growth; 360,000 compounds, 0.21% hits; active = well fitted falling curve with a large enough effect; inconclusive = small, poorly fitted or top-dose-only effect; inactive = no such curve, though single readings can be large or run the other way;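 note: % is set by controls: 0 for no effect and ±100 for the full control effect; nearly all actives have a fitted effect of over 50% in size; the assay follows cell death caused by Vpr and the record does not say whether a fall means rescue or toxicity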
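Fission yeast RE007 carrying one integrated HIV-1 vpr copy, seeded at OD 0.01 in PMG+AL medium with 23 nL pinned compound. Grown 24 h at 30 degrees; viability read by BacTiter-Glo luminescence after 5 min.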
SARS PLpro yeast: inhibitors of SARS-CoV papain-like protease in yeast. S. cerevisiae expressing SARS-CoV PLpro, growth rescue; control for the full effect not named in the record. Potency, µM (highest dose often 32.9 µM), inactives show top-dose activity, positive = growth rescue. 330,000 compounds, 0.19% hits. AID 485353; active means well fitted rising curve with a large enough effect; inconclusive means small, poorly fitted or top-dose-only effect; inactive means no such curve, though single readings can be large or run the other way; note: 0% is about no effect; nearly all actives have a fitted effect of over 55% in size; growth read by luminescence after 48 h
2A StopGo: lowers the luciferase signal of an FMDV 2A StopGo reporter. human cells with a luciferase reporter of 2A StopGo recoding; control for the full effect not named in the record. Potency, µM (highest dose often 57.9 µM), without a hit: at the highest dose signal change, negative = less light. 410,000 compounds, 1.2% hits. AID 1159524; active = well fitted falling curve with a large enough effect; inconclusive = small, poorly fitted or top-dose-only effect; inactive = no such curve, though single readings can be large or run the other way; tested in HEK293T cells; note: % is set by controls: 0 for no effect and ±100 for the full control effect; nearly all actives have a fitted effect of over 45% in size; luciferase light after 4 h
Lassa entry inh: Lassa virus entry inhibition. 300,000 compounds, 1.2% hits. Lassa virus pseudotype entry inhibition, cell reporter; control for the full effect not named in the record. Potency, µM (highest dose often 37.9 µM), without a hit: top-dose activity change, negative = inhibition, actives largely listed as inhibitors. AID 540256; active means well fitted inhibition curve with a large enough effect; inconclusive means small, poorly fitted or top-dose-only effect, or effect the other way; inactive means flat fitted curve, though single readings scatter; tested in HEK293 cells; note: % is set by controls: 0 for no effect and ±100 for the full control effect; nearly all actives have a fitted effect of over 50% in size; luciferase read-out
Starred values were filed as active, the others as inactive; ? = inconclusive; nt = not tested or not shown; & = joins results of further samples; [ ] = another dose, or the depositor's remark. Unless noted, calls come from the whole dose curve; as a rule, active = well fitted curve in the direction sought with a large enough effect; inconclusive = small, poorly fitted or top-dose-only effect, or another doubt; inactive = no such curve, though single readings can be large; an effect the other way counts as inactive or inconclusive. Potency is the fitted concentration of half-maximal effect.

compound | NS1 function inh | Marburg entry inh | Cruzain noTriton | Cruzain Triton | RE007 growth inh | SARS PLpro yeast | 2A StopGo | Lassa entry inh
Cc1ccc(C)c(-c2nc(Cn3c(=O)cc(-c4ccccc4)c4c(C)nn(C)c43)c(C)o2)c1 | nt | nt | -1.8% | -1.5% | nt | nt | -6.9% | 12.2%[46.1 µM]
CN(CCCC(=O)O)S(=O)(=O)c1ccc2c(c1)C(=O)c1cc(S(=O)(=O)N(C)CCCC(=O)O)ccc1-2 | ? | nt | nt | nt | 2.1% | -6.5% | -0.7% | nt
COc1cc2c(cc1OC)CC[N+](C)=C2 | -0.6% | nt | nt | nt | 10.6% | 0.8% | -16.3% | nt
Cc1nn2cc(-c3cccc(Cl)c3)cnc2c1Br | 2.1% | ? | nt | nt | 23.6% | 16.8% | 34.9%[activator] | 9.2%
COc1nsnc1N1CCOCC1 | nt | 14.1%&14.1%[46.1 µM] | nt | nt | 3.2% | 1.9% | 12.3% | 10.8%
COc1cccc(C(=O)N2CCC(n3nccc3NC(=O)C3CCOC3)CC2)c1 (stereo not given) | -8.7% | ? | nt | nt | 2.4% | ? | -14.6% | 8.2%
C/C(=C\C(=O)c1sccc1Cl)N(C)C | 3.9% | 17.1%[46.1 µM] | nt | nt | -21.1% | 0.7% | -0.9% | 27.7%[46.1 µM]
O=C(CCC(=O)c1cccs1)Nc1ncccc1O | nt | -0.8% | nt | nt | 1.0% | -6.0% | 6.4% | 8.6%
NC(=O)c1cc([N+](=O)[O-])ccc1NCCN1C(=O)c2ccc(C(=O)O)cc2C1=O | 1.2% | -18.2%[46.1 µM] | nt | nt | -4.1% | 0.4% | -1.9% | -16.4%
Clc1ccc(-c2c(C3=NCCCN3)nnn2-c2ccc(Cl)cc2)cc1 | -5.7% | nt | nt | nt | -0.6% | -1.0% | -8.7% | nt
COc1ccc(C(=O)CC(=O)C(=O)Nc2ccc([N+](=O)[O-])cc2C)cc1 | 4.7% | -16.0% | nt | nt | 0.0% | 2.8% | ? | ?
CC(C)CC(=O)NNC(=S)NCc1ccco1 | 4.1% | 3.6%[14.2 µM] | nt | nt | -10.2% | 0.7% | 0.0% | 4.5%
O=C(Cc1ccc(-n2cccc2)cc1)N1CCN(c2ccccc2F)CC1 | -7.9% | -19.3% | -5.1% | -6.8% | -7.7% | -7.8% | -6.3% | -3.0%
O=S(=O)(Nc1ccc(-n2cnnn2)cc1)c1cccc(Cl)c1 | nt | -4.5%[46.1 µM] | nt | nt | 3.7% | -12.5% | 21.4% | 0.0%
CCCn1c(SCC(=O)Nc2cccc(C(=O)OC)c2)nnc1-c1cccnc1 | 1.3% | 3.8% | 8.4% | 2.7% | 15.6% | 1.7% | -25.1% | 4.3%
Cc1cccc(-c2noc(-c3ccccc3OCC(=O)Nc3ccc([N+](=O)[O-])cc3)n2)c1 | nt | -5.7%[46.1 µM] | -2.5% | -8.0% | nt | nt | 2.2% | 1.0%[46.1 µM]
N#Cc1c(NC(=O)c2ccccc2Cl)n(Cc2ccccc2)c2nc3ccccc3nc12 | 3.6% | -45.6% | 19.2% | -11.8% | 14.9% | 8.3% | 0.0% | ?
O=C(NCCOC(=O)Nc1cccc2ccccc12)OCc1ccccc1 | nt | -0.1% | nt | nt | 6.5% | nt | -21.8% | ?
Cc1c(C(=O)NCCC2=CCCCC2)sc2ncnc(N3CCCCC3C)c12 (stereo not given) | -15.0% | ? | nt | nt | 4.0% | -19.1% | -17.1% | ?
CCOC(=O)c1c(-c2cccs2)csc1NC(=O)COC(=O)c1c(C)noc1C | 16.3% | ? | -15.3% | 0.7% | 20.0% | -2.0% | ? | -26.5%
Cc1cc(C(=O)NCc2ccco2)c2cc(F)ccc2n1 | 0.6% | 11.2%[46.1 µM] | nt | nt | 8.7% | 0.2% | 12.8% | -11.6%[46.1 µM]
Cc1cc(Nc2ccc(C(=O)O)cc2)n2nc(C)nc2n1 | ? | nt | 1.3% | -9.7% | -4.2% | 7.9% | -16.1% | nt
COc1ccc(-c2sc(Nc3ccccc3)n[n+]2C)c(C)c1C | -2.1% | nt | nt | nt | 25.7% | -0.5% | 0.0% | nt
CC(C)NC(=O)CS(=O)(=O)c1ccccc1 | -22.6% | nt | nt | nt | -2.1% | 1.4% | -4.6% | nt
C#CCOCCOCCOCCNc1nc(N2CCN(C(=O)[C@H](CCC(=O)O)n3cc(C(N)CC(C)C)nn3)CC2)nc(N2CCN(C(=O)[C@H](CCC(=O)O)n3cc(C(N)CC(C)C)nn3)CC2)n1 (stereo not given in full) | 3.2% | nt | nt | nt | 17.9% | 0.5% | 11.1% | nt
Cc1cccc(N2CCN(CCNC(=O)C3COc4ccccc4C3)CC2)c1C (stereo not given) | nt | nt | 2.0% | 0.8% | nt | nt | -29.0% | 13.8%[46.1 µM]
CCN(CC)CCNC(=O)C(=O)Nc1ccc(C(=O)OC)cc1 | 2.8% | nt | nt | nt | -5.8% | 1.1% | 1.3% | nt
CCOc1cc(C(=O)N(C)CC(=O)Nc2cccc(F)c2)ccc1OCC(=O)N1CCOCC1 | nt | 10.9% | nt | nt | 1.3% | -3.6% | -5.1% | 0.5%
Fc1c(CSC(=S)N2CCOCC2)cccc1CSC(=S)N1CCOCC1 | -0.4% | ? | nt | nt | -5.0% | 0.5% | -14.7% | ?
O=C(CSc1nnc(NC(=O)c2c(F)cccc2F)s1)NC1CCCCC1 | 0.1% | 10.7%[46.1 µM] | nt | nt | -1.0% | -1.5% | 0.0% | 6.6%
CC1CCC2C(C1)c1sc(=O)[nH]c1SC2(C)C (stereo not given) | -68.7% | ? | -5.6% | -4.8% | 6.7% | -15.4% | ? | -27.4%
CN(C)CCN(C(=O)CCS(=O)(=O)c1ccccc1)c1nc2c(F)cccc2s1 | -7.5% | nt | nt | nt | -11.3% | -8.7% | -12.1% | nt
O=C(N/N=C/c1cn(-c2ccccc2)nc1-c1ccc(F)cc1)c1ccc(Br)o1 | -3.4% | ? | ? | 1.4% | -2.2% | 1.6% | ? | ?
CCCc1nnc(SCC(=O)NC2CCCCC2)n1CCOC | 20.0% | 3.7%[46.1 µM] | nt | nt | -15.9% | 4.7% | -23.9% | 0.1%
O=C(COC(=O)/C=C/c1ccccc1Cl)NC1CCCCCC1 | nt | -5.6%&-5.6% | nt | nt | -1.0% | -0.2% | -3.9% | -0.1%
COc1ccc(OCCCC(=O)Nc2ccc(N3CCCCC3)cc2)cc1 | -2.7% | ? | -27.6% | -1.4% | 1.7% | -3.8% | -12.1% | ?
CCC(C(=O)OCC(=O)C1(O)CCC2C3CCC4=CC(=O)CCC4(C)C3C(O)CC21C)C(C)C (stereo not given) | nt | ? | nt | nt | -8.0% | nt | 20µM* | ?
Cc1cccc(CN2CCC(CNC(=O)Nc3ccc(F)c(Cl)c3)CC2)c1 | -1.7% | ? | nt | nt | 6.2% | -0.9% | ? | ?
O=C(Nc1ccccc1C(=O)Nc1ccccn1)c1ccc([N+](=O)[O-])cc1 | 0.1% | -30.0% | nt | nt | -20.3% | 0.9% | -10.4% | -25.6%
COc1ccc2oc(=O)c(C(=O)Nc3ccccc3C)cc2c1 | -1.7% | nt | nt | nt | -9.4% | 1.6% | 24.6% | nt
O=C(Nc1cc(F)cc(F)c1)c1sc(Cl)nc1-c1ccccc1 | 7.1% | -34.9% | -26.1% | -3.2% | 0.6% | 7.4% | -12.0% | -12.0%
CCOC(=O)C1CCCN(C(=O)c2cc(Nc3ccc(OC)cc3)nc3ccccc23)C1 (stereo not given) | -35.4% | -3.6% | 3.0% | -7.8% | -16.8% | nt | -12.7% | ?
CCOc1c(Cl)cc(CNc2ccc3[nH]c(=O)[nH]c3c2)cc1OC | nt | ? | -1.6% | -3.3% | nt | nt | -25.9% | -9.6%[46.1 µM]
COCC(C)n1c(SCC(=O)NNC(=O)c2ccc(F)cc2)nc2ccccc2c1=O (stereo not given) | 1.2% | 0.5% | 6.5% | -1.4% | 12.7% | 4.6% | -18.9% | -4.8%
COc1cc(Cl)c(S(=O)(=O)N2CC(C)OC(C)C2)cc1Cl (stereo not given) | -12.4% | 5.1% | -9.0% | -5.3% | -5.8% | -1.2% | -6.1% | -3.9%
CC(C)c1nc2scc(-c3ccc(Cl)cc3)c2c(=O)n1N | -12.2% | nt | nt | nt | -3.9% | -1.1% | -21.2% | nt
CCCCC1(CC)C(=O)NC(=O)NC1=Nc1ccc(OC)cc1 (stereo not given) | 5.8% | 5.1% | -1.6% | 3.2% | -12.8% | 2.4% | 36.9%[activator] | 5.0%
CN(C)S(=O)(=O)c1ccc(F)c(C(=O)Nc2ccccc2C(=O)NC2CC2)c1 | nt | 1.9% | nt | nt | 29.5% | 0.7% | -14.2% | -13.2%

4 entries out of the list, sorted by count of non-hydrogen atoms, high to low:
compound | NS1 function inh | Marburg entry inh | Cruzain noTriton | Cruzain Triton | RE007 growth inh | SARS PLpro yeast | 2A StopGo | Lassa entry inh
NC(=O)c1cc([N+](=O)[O-])ccc1NCCN1C(=O)c2ccc(C(=O)O)cc2C1=O | 1.2% | -18.2%[46.1 µM] | nt | nt | -4.1% | 0.4% | -1.9% | -16.4%
Cc1c(C(=O)NCCC2=CCCCC2)sc2ncnc(N3CCCCC3C)c12 (stereo not given) | -15.0% | ? | nt | nt | 4.0% | -19.1% | -17.1% | ?
COc1ccc(OCCCC(=O)Nc2ccc(N3CCCCC3)cc2)cc1 | -2.7% | ? | -27.6% | -1.4% | 1.7% | -3.8% | -12.1% | ?
COc1cc2c(cc1OC)CC[N+](C)=C2 | -0.6% | nt | nt | nt | 10.6% | 0.8% | -16.3% | nt

Assay outcomes from PubChem BioAssay.
